TRPV1 potentiator – enhances activation of the human vanilloid receptor TRPV1. Q8NER1. TRPV1-expressing cells, Fluo-8 calcium influx, capsaicin EC20 potentiation; host cell line not named in the record; control for the full effect not named in the record. potentiation, % at 8.33 µM. 320,000 compounds, 0.02% hits. AID 540277; active means potentiation above 80%; inconclusive means 30% to 80%; inactive means below 30%; further: 0% is about no effect
Target sequence (Q8NER1 whole entry, looked up): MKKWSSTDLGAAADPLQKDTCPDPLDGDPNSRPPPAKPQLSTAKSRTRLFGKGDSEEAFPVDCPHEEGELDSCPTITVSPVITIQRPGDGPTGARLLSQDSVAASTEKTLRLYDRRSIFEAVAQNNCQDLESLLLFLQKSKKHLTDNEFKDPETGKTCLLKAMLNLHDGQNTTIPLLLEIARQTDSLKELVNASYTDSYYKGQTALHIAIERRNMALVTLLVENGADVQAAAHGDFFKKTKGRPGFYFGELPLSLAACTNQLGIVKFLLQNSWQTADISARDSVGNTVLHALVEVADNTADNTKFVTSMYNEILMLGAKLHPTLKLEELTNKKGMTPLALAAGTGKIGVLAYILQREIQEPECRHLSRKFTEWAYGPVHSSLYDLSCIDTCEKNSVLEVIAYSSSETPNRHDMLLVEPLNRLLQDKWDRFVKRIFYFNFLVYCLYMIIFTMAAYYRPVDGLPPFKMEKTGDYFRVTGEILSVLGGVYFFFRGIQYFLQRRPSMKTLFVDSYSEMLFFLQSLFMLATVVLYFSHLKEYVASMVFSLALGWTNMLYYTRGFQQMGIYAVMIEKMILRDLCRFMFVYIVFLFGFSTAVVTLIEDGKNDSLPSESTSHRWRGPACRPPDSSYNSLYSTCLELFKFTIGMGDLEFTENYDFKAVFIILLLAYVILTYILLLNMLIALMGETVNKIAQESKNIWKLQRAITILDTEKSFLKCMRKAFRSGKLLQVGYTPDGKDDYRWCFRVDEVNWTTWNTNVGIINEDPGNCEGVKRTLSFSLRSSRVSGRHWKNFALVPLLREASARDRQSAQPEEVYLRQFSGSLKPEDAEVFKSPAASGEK
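Cells expressing TRPV1 were dye-loaded with Fluo-8 and read kinetically: 10 s baseline, 3 min after compound (agonist portion), then 2 min after EC20 capsaicin (allosteric enhancer portion). Calcium-bound dye fluorescence at 480/520 nm.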
Menin-MLL FL inh – displaces fluorescein MLL peptide from human menin; Fluorescence polarization, fluorescein-MLL peptide displacement from menin; FP activity change, % at 61.4 µM; 290,000 tested, under 10 active; inconclusive = falling polarisation curve, or a change in total fluorescence; inactive = total fluorescence flat and polarisation flat or rising; no compound was filed as active; the % refers to the polarisation; negative = inhibition;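 further: % of control where 0% means no effect; inhibitors lower the polarisation; unlabelled MLL peptide was the positive control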
gsp antagonist – antagonizes gsp, the McCune-Albright syndrome mutation. gsp-mutant cells, cAMP HTRF, 30 min; control for the full effect not named in the record. Potency, µM (top dose mostly 76.9 µM), without a hit: at the highest dose activity change, negative = inhibition, hits mostly inhibitors. 340,000 compounds, 0.4% hits; active = falling curve of any shape with a large fitted effect; inconclusive = falling curve, mostly with a smaller effect; inactive = flat or rising curve; cell line not stated here;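 further: intracellular cAMP measured with PDE inhibitor Ro 20-1724 present during compound exposure; potency means the concentration at half of the fitted maximal effect; on the % scale 0 is the no-effect control and ±100 the full control effect; nearly all actives have a fitted effect of over 65% in size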
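Cells, 2000/well, grown 16–24 h in DMEM 10% FBS with 0.5 mg/ml G418, then compounds plus […] (300 uM addition stock), 30 min at 37C. cAMP read by HTRF (cAMP-d2 and anti-cAMP antibody-K in lysis buffer) after 30 min RT.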
D2 potentiator – positive allosteric modulators of human D2 dopamine receptor; P14416; DiscoveRx D2 beta-arrestin cells, luminescence, 90 min; 100% = 57 uM dopamine signal; potentiation, % (no concentration beside the values); 360,000 compounds, 0.23% hits; AID 624464; active = potentiation of 50% or more; inconclusive = 30% to 50%; inactive = 30% or less;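 further: compound concentration not given in the record; tested on top of an EC20 dose of dopamine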
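D2 cells co-treated with compound plus 50 nM dopamine (EC20) for 90 min at 37 deg C to detect potentiation. Beta-arrestin recruitment was read as enzyme-fragment luminescence after 1 h at ambient temperature. Full response was set by 57 uM dopamine.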
Sfp inh – inhibitors of Bacillus subtilis Sfp phosphopantetheinyl transferase; AID 1490; Q9F4F7; 310,000 compounds, 3.5% hits; Potency, µM, for the others: max response, negative = inhibition, most hits filed as inhibitors; Biochemical Sfp PPTase activity, qHTS; active means well fitted inhibition curve with a large enough effect; inconclusive means small, poorly fitted or top-dose-only effect, or another doubt; inactive means no such curve, though single readings can be large or run the other way;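 further: the enzyme is Sfp with the accession as filed and its product quenches rhodamine fluorescence; potency means the concentration at half of the fitted maximal effect; 0% = enzyme reaction without inhibitor and -100% = no enzyme wells; top concentration of the series not given in the record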
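Reaction rates are the 30-min fluorescence difference (ex 525, em 598 nm) in wells containing 15 nM Sfp, 5 uM rhodamine-CoA and 12.5 uM BHQ-2-YbbR at pH 7.6 with 10 mM MgCl2.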
gsp agonist – agonists of gsp mutant (McCune-Albright syndrome) | gsp mutant cells, cAMP HTRF, 30 min; control for the full effect not named in the record | Potency, µM (series often up to 76.9 µM), without a hit: at the highest dose activation (cAMP increase), most hits filed as activators | 340,000 compounds, 0.13% hits; active = well fitted activation curve with a large enough effect; inconclusive = small, poorly fitted or top-dose-only effect, or another doubt; inactive = no such curve, though single readings can be large or run the other way; cell line not stated here;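 further: phosphodiesterase inhibitor Ro 20-1724 added with compounds to block cAMP breakdown; potency means the concentration at half of the fitted maximal effect; nearly all actives have a fitted effect of over 60% in size; about a fifth of the inactives were tested at one dose only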
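Cells in DMEM/10% FBS with G418 were pretreated with compounds in DMSO plus […] (300 uM stock) for 30 min at 37C. cAMP was measured by HTRF (cAMP-d2 plus anti-cAMP antibody-K) after 30 min at room temperature.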
ClpP mod – qHTS Assay for Activators of ClpP; ATP-dependent Clp protease proteolytic subunit (Bacillus subtilis (strain 168)), P80244; purified B. subtilis ClpP, FRET peptide cleavage, 20 min; Potency, µM (titrated, usually from 57.5 µM), inactives show at the highest dose activity change, negative = active; 340,000 compounds, 1.9% hits; AID 651965, 2013; active = well fitted falling curve with a large enough effect; inconclusive = small, poorly fitted or top-dose-only effect; inactive = no such curve, though single readings can be large or run the other way; further: potency means the concentration at half of the fitted maximal effect; the source files actives as falling curves though it sought activators and does not explain the sign; nearly all actives have a fitted effect of over 65% in size; many hits overshoot -100%
Target sequence (P80244 whole entry, looked up): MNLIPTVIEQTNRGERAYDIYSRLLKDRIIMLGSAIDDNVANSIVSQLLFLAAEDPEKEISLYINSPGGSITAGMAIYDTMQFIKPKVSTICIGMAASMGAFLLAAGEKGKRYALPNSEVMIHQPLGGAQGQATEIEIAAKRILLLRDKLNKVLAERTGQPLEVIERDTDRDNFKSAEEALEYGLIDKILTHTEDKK
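Buffer: 100 mM Tris/HCl pH8, 100 mM KCl, 0.05% low protease BSA, 2.5% glycerol, 0.01% Tween-20. ClpP 10 microg/mL final; 20 min RT; delta FRET normalized to ADEP and DMSO controls.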
* marks the source's active call; other numbers are inactive results; ? = inconclusive; · = no result given; & = joins results of further samples; [ ] = dose if it differs, or a comment.

SMILES	TRPV1 potentiator	gsp agonist	ClpP mod	D2 potentiator	Sfp inh	Menin-MLL FL inh	gsp antagonist
O=C(CSc1ncccc1-c1nc2ccccc2[nH]1)NCc1ccco1	1	18%	14µM*	-12	40µM*	?	4%
CC(C)OCCCN1CC(=O)N2[C@@H](Cc3c([nH]c4ccccc34)C2(C)C)C1=O	-6	16%[15.4 µM]	-3.5%	-8	16%	-6.1	-14%
COc1ccccc1-c1noc(Cn2cc(S(=O)(=O)N3CCCC3)ccc2=O)n1	5	?	0.1%	-4	·	·	1%
Cc1ncc(C(=O)O)c(C(=O)O)c1N	-7	44%	-3.2%	-18	12%	2.9	4%
CN1CCN(C(=O)CCN2C(=O)/C(=C/c3cccc(Br)c3)SC2=S)CC1	-19	-25%	·	-8	-3%	-5.2	0%
NS(=O)(=O)c1ccc(NC(=O)Nc2cccc(Cl)c2)cc1	6	-4%	·	-5	3%	1.2	-3%
O=C(CSc1nc(C2CCCCC2)nc2ccccc12)NCc1ccc2c(c1)OCO2	-8	?	0.2%	-6	-10%	3.0	0%
Cc1cc(S(=O)(=O)N2CCN(Cc3ccccc3)CC2)c(C)s1	-19	?	1.9%	-4	3%	6.8	1%
Cc1ccc(OCCCC(=O)N2CCOCC2)c(C)c1	-25	7%	0.8%	3	13%	-0.8	14%
COc1ccc(C2(C(=O)Nc3ccc(C(=O)O)cc3)CCOCC2)cc1	?	2%	1.1%	-8	25%	1.3	-6%
CCOC(=O)C(=Cc1ccc(-n2cncn2)cc1)C(=O)OCC	7	?	·	-10	-20%	-11	-9%
Cc1ccc(S(=O)(=O)N2CCC(C(=O)N3CCCCCCC3)CC2)cc1C	·	-5%	-4.2%	-25	·	·	·
O=C(COc1cccnc1[N+](=O)[O-])Nc1cccc2ccccc12	5	-7%	-1.8%	-14	·	·	-3%
Cc1cc(=O)n2[nH]c(SCc3ccc(Cl)cc3)nc2n1	-4	0%[15.4 µM]	0.4%	4	5%	2.9	15%
O=C(NC(=S)N1CCN(c2ccc([N+](=O)[O-])cc2)CC1)c1ccc(F)cc1	-5	-1%	-2.2%	-15	6%	9.2	12%
CSCc1cc(N(C)C)nc(SCc2ccc(Cl)c(Cl)c2)n1	6	-40%[inhibitor]	-2.3%	2	-11%	2.2	4%
NS(=O)(=O)c1ccc(CNC(=O)CSc2ccccc2)cc1	-2	-31%[15.4 µM]	·	-5	-8%	0.8	13%
Cc1cc(C(=O)CSc2nc(N)cc(=O)[nH]2)c(C)n1CC1CCCO1 (stereo unspecified)	·	27%	·	-5	·	·	-2%
CCN(CCCNC(=O)c1cc2c(-c3cccc(OC)c3)nn(C)c2s1)Cc1ccccc1	-13	?	3.5%	-39	-10%	-2.9	2%
CCCCN(CCCC)C(=O)c1nsnc1-c1ccccc1O	-5	-22%	?	-10	17%	1.3	-2%
CCOC(=O)C1(CC2CCCCO2)CCN(C(=O)Nc2ccc(SC)cc2)CC1 (stereo unspecified)	-12	4%	·	-9	15%	-1.3	-2%
COc1cc2c3nnc(-c4ccc(F)cc4)c-3cn(Cc3cccc(F)c3)c2cc1OC	-31	25%	-16%	-6	45µM*	?	0%
COc1ccc(CCNC(=O)c2cc3c(=O)n4cccc(C)c4nc3n(CCCN3CCOCC3)c2=N)cc1	3	?	3.0%	0	11%	-0.3	11%
CCOC(=O)CN1C2=NCCN2c2ccccc21	17	-68%[inhibitor]	0.4%	-15	-81%	-4.0	4%
COc1ccc(C=O)cc1CN1C(=O)c2ccccc2C1=O	6	27%	·	0	13%	2.3	15%
COc1cccc(/C=C2/CCC(CN(C)C)C2=O)c1 (stereo unspecified)	·	?	-1.7%	-18	·	·	17%
CC(=O)Nc1cc(N=Cc2ccc(O)cc2O)c(Cl)cc1Cl	-4	-64%[inhibitor]	-2.6%	-7	-5%	·	-3%
CCN1CCC(CN2CCNC2=S)CC1	·	·	-0.8%	-3	·	·	9%
O=C(c1ccc(S(=O)(=O)N2CCCC2)cc1)N1CCCC(C(F)(F)F)C1 (stereo unspecified)	8	-1%	-2.3%	-12	·	·	-11%
O=C(NCc1ccccc1)C1CCCN1S(=O)(=O)c1cccc2cccnc12 (stereo unspecified)	6	9%	-1.6%	-10	-10%	-0.9	-6%
CCCCN(C(=O)c1ccc(NC2CC2)c([N+](=O)[O-])c1)c1c(N)n(CC(C)C)c(=O)[nH]c1=O	-6	2%	-1.4%	-2	·	·	0%
COC(=O)c1ccc(N(C(=O)c2ccco2)C(C(=O)NC2CCCC2)c2ccco2)cc1 (stereo unspecified)	0	5%	-0.3%	-25	0%	2.3	-4%
COc1ccccc1NC(=O)Cn1cnc2c(cnn2-c2ccc(C)c(C)c2)c1=O	3	-7%	36%	-7	8%	14	-14%
O=C(CNC(=O)c1ccc(Br)o1)NCc1cccc(Cl)c1	-10	9%	0.0%	3	89µM*	·	10%
O=C(C1CCN(Cc2ccc(OCc3ccccc3)cc2)CC1)N1CCCC1	4	44%	-1.2%	-11	?	-0.2	16%
O=C(N[C@@H]1CCC(=O)N(CC[C@H](Sc2ccccc2)c2ccccc2)CC1)OCc1ccccc1	14	·	-0.4%&0.0%	-14	9%	-0.3	-16%

Whole records as entered above. Order of screens: TRPV1 potentiator | gsp agonist | ClpP mod | D2 potentiator | Sfp inh | Menin-MLL FL inh | gsp antagonist
Listed for CCCCN(CCCC)C(=O)c1nsnc1-c1ccccc1O = -5 | -22% | ? | -10 | 17% | 1.3 | -2%
Listed for COc1ccc(CCNC(=O)c2cc3c(=O)n4cccc(C)c4nc3n(CCCN3CCOCC3)c2=N)cc1 = 3 | ? | 3.0% | 0 | 11% | -0.3 | 11%

Next section:
SMILES	TRPV1 potentiator	gsp agonist	ClpP mod	D2 potentiator	Sfp inh	Menin-MLL FL inh	gsp antagonist
COc1ccc(-c2nc3c(-c4ccc(F)cc4)cnn3cc2C)cc1F	5	15%[15.4 µM]	-3.0%	-4	?	0.9	-18%
COc1ccc(NC(=O)CCN2CCN(Cc3ccccc3)CC2)c(OC)c1	?	-32%[inhibitor]	-0.2%	-40	6%	2.8	-4%
CCN(CC)S(=O)(=O)c1ccc(Cl)c(C(=O)NC2CCCC2)c1	-33	15%	-2.1%	-15	13%	-1.1	10%
CCSc1nc2ccccc2n1CC(=O)N1CCCCC1	-10	-36%[inhibitor]	1.7%	-9	9%	1.7	11%
O=C(NNC(=S)Nc1ccccc1)c1cccs1	17	-22%	2.1%	-22	19%	5.3	11%
Fc1cccc(NC(=S)N2CCCCC2)c1	-5	?	1.1%	-4	7%	-3.6	-6%
COc1ccc(N(CC(=O)NC2CCCCCC2)S(=O)(=O)c2ccccc2)cc1Cl	-9	2%[15.4 µM]	-1.8%	-17	9%	·	-22%
CC1CCCCC1NC(=O)/C(C#N)=C/c1ccc(F)c(F)c1 (stereo unspecified)	0	-61%	2.2%	-11	-4%	-1.0	4%
COc1ccc(C2=Nn3c(nnc3-c3cc(C)[nH]n3)SC2)cc1	3	-2%[15.4 µM]	-2.0%	-3	11%	0.6	-3%
Cc1cccc(NS(=O)(=O)c2ccc(C3CCCCC3)cc2)c1	-8	-18%	1.6%	12	-2%	2.7	12%
Cc1c(C(=O)N2CCCCC2)c(S(=O)(=O)NCCc2ccccc2)c(C)n1C	-9	?	-0.5%	-4	16%	·	9%
O=CNCC(=O)NC1CCCCCC1	-41	8%	1.4%	7	26%	-0.4	-12%
CC1=C(Sc2ccccn2)C(=O)NC(C)(C)C1	19	8%	-3.3%	-8	14%	9.4	3%
Cc1ccc(C(=O)COC(=O)CCN2C(=O)C3C4CCC(C4)C3C2=O)cc1[N+](=O)[O-] (stereo unspecified)	10	?	-1.7%	-30	9%	·	-4%
CC12C=CC3(O1)C(C(=O)N(c1ccccc1)C3C(=O)NC1CCCC1)C2C(N)=O (stereo unspecified)	-2	-33%[inhibitor]	-3.3%	-3	7%	3.2	13%
CC(=C/c1ccc(C(C)C)cc1)/C=N/NC(=O)Cn1nc(C)cc1C	-4	2%[15.4 µM]	·	-1	-5%	1.8	-1%
COc1cccc2c1C1COC3C4CC(C(=O)O)C(C(C2)N13)N4C (stereo unspecified)	·	2%	-5.8%	-13	·	·	-1%
O=C(O)C(C/C(=N/O)c1ccc(Br)cc1)P(=O)(c1ccccc1)c1ccccc1 (stereo unspecified)	-1	-19%[15.4 µM]	·	2	32%[activator]	0.0	7%
CCOC(=O)c1c(C)nsc1NC(=O)c1ccco1	3	-79%[inhibitor]	·	-2	7%	2.7	-4%
Cc1c(CCO)c(=O)[nH]n1S(=O)(=O)c1ccc([N+](=O)[O-])cc1	1	-33%	-1.3%	8	7%	0.2	10%
S=c1sc2ccccc2n1CCc1ccncc1	15	-1%	-0.5%	-3	·	·	1%
Cc1nc2ccccc2n2c(O)c(CC(=O)O)cc12	0	?	-5.8%	79*	10%	?	-17%
CC(NC(=O)c1ccc(NC(=O)CC2SC(N3CCCC3)=NC2=O)cc1)c1ccc(S(N)(=O)=O)cc1 (stereo unspecified)	25	4%[15.4 µM]	-2.2%	-2	·	·	-12%
O=S(=O)(c1ccc(Cl)cc1)N1CCC(N2CCOCC2)CC1	10	?	1.1%	-20	?	0.3	4%
O=c1ccc2c(-c3ccccc3)c3ccc(O)cc3oc-2c1	-4	34%	·	2	32µM*	?	?
Cc1ccc(N(C(=O)c2nsc(Cl)c2Cl)C(C(=O)NC2CCCC2)c2ccc(O)cc2)cc1C (stereo unspecified)	-7	5%[15.4 µM]	?	-10	11%	0.0	?

Screening data: PubChem BioAssay, National Center for Advancing Translational Sciences (NCATS)
